BCR signal inh: inhibitors of chronic active B-cell receptor signaling; Potency, µM (titrated, usually from 46.1 µM), without a hit: top-dose ratio change, negative = lower green/red ratio, hits mostly inhibitors; 0.05% of 340,000 active; ABC-DLBCL IkBa-CBG/CBR reporter, luminescence ratio, 4 h; active = well fitted inhibition curve with a large enough effect in the signal ratio, with a control signal flat, not every such curve was filed as active; inconclusive = small, poorly fitted or top-dose-only effect, or effect the other way, or a change in a side signal; the % refers to the signal ratio;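 note: potency is the fitted concentration of half-maximal effect; plate controls were basal doxycycline-induced cells for no effect and cells given 10 µM MG132 for full effect; MG132 reads +100%, hits lower the ratio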
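Compounds up to 46 uM were incubated four hours with TMD8 cells whose green CBG68 luciferase is fused to IkappaBalpha; red CBR luminescence normalised the signal, and concentration-effect curves were fitted to fusion, red and ratio data.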
KCNH2 WT inh: KCNH2 (human, wildtype) channel inhibition; Q12809; U2OS, BacMam KCNH2, thallium flux FluxOr; stronger effect = lower value; activity change, % at 1.84 µM; 0.37% of 340,000 active;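 active = maximum activity change below -70%; inconclusive = maximum activity change between -70% and -50%; inactive = maximum activity change above -50%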
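U2OS cells were transduced with wild-type KCNH2 virus (2.03 x 10^8 / mL) for 4 h at room temperature, then cultured overnight at 37 C. Thallium flux was read with FluxOr dye. Rate constants were normalized to DMSO controls.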
GALK inhibitor: inhibitors of human galactokinase; P51570; Purified GALK, Kinase-Glo residual ATP luminescence; Potency, µM (series often up to 57.5 µM), inactives show at the top dose activity change, negative = inhibition, most hits filed as inhibitors; 0.007% of 270,000 active; note: potency is the fitted concentration of half-maximal effect
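5 nM enzyme, 35 uM ATP, 100 uM galactose, 20 mM HEPES pH8.0, 5 mM MgCl2; 1 h RT; residual ATP by Kinase-Glo Plus luminescence, qHTS format.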
B2AR arrestin: recruits beta-arrestin to the human beta2-adrenergic receptor; Potency, µM (highest dose often 46.1 µM), without a hit: at the top dose activation, actives largely listed as activators; P07550; 0.02% of 330,000 active; beta-arrestin recruitment to beta2AR, cell-based reporter;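 note: potency is the fitted concentration of half-maximal effect; 0% = DMSO controls and full agonism = EC100 isoproterenol or metaproterenol; nearly all actives have a fitted effect of over 65% in size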
Target sequence (P07550 whole entry, looked up): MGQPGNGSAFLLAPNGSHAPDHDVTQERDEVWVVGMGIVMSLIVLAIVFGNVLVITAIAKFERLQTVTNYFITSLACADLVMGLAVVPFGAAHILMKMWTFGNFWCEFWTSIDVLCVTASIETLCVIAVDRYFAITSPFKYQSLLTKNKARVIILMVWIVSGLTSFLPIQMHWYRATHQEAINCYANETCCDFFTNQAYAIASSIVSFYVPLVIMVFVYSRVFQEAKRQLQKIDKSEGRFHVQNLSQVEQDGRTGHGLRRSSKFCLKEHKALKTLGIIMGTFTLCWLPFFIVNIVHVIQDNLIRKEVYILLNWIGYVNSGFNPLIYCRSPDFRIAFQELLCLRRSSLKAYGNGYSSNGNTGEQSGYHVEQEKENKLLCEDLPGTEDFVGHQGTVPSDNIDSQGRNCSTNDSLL
KCNH2 3.1 inh: blocks the human KCNH2 3.1 channel isoform; U2OS KCNH2 3.1, thallium flux FluxOr; stronger effect = lower value; activity change, % (tested at about 1.8 µM); 0.95% of 340,000 active; AID 720553;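 active = maximum activity change below -70%; inconclusive = maximum activity change from -70% to -50%; inactive = maximum activity change above -50%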;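 note: thallium influx rate constant from kinetic fluorescence after stimulation buffer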
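Steps: virus added to U2OS suspension (4 h, RT, dark); medium with 10% FBS added, cells plated, 37 C overnight; FluxOr/Red40 loading buffer 45 min RT; stimulation buffer, 2 min kinetic read; rate constant normalized.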
uPA generation: cell surface uPA generation inhibition; 0.31% of 330,000 active; cell surface uPA generation assay, qHTS; Potency, µM (titrated, usually from 38.3 µM), for inactives: at the highest dose activity change, negative = inhibition, most hits filed as inhibitors; active = well fitted inhibition curve with a large enough effect; inconclusive = small, poorly fitted or top-dose-only effect; inactive = no such curve, though single readings can be large or run the other way; tested in mouse RAW 264.7 cells; note: potency is the fitted concentration of half-maximal effect; nearly all actives have a fitted effect of over 55% in size
Coupling enz: counter-screen for Giardia aldolase inhibitors: coupling enzyme system; 0.67% of 290,000 active; activity change, negative = inhibition, % at 58.2 µM, hits read low; coupling enzyme system counterscreen, AmpLite Red fluorescence; in the data active = activity change below about -30%
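First, compound is pin-transferred into glyceraldehyde-3-phosphate coupling-enzyme reagent at 57.5 uM final and held 10 min at RT. Next, substrate, coupling system and AmpLite Red are added. After 20 min RT, fluorescence (525/598 nm) is read.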
USP2a block: blocks human ubiquitin-specific protease USP2a | Potency, µM (series often up to 38.3 µM), without a hit: at the top dose activity change, negative = inhibition, hits mostly inhibitors | O75604 | USP2 core, Ub-CHOP2 coupled fluorogenic reporter, 485/531 | 0.01% of 330,000 active;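 note: potency is the fitted concentration of half-maximal effect; plate controls were DMSO wells for no effect and full inhibition by NEM control for full effect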
Target sequence (O75604 whole entry, looked up): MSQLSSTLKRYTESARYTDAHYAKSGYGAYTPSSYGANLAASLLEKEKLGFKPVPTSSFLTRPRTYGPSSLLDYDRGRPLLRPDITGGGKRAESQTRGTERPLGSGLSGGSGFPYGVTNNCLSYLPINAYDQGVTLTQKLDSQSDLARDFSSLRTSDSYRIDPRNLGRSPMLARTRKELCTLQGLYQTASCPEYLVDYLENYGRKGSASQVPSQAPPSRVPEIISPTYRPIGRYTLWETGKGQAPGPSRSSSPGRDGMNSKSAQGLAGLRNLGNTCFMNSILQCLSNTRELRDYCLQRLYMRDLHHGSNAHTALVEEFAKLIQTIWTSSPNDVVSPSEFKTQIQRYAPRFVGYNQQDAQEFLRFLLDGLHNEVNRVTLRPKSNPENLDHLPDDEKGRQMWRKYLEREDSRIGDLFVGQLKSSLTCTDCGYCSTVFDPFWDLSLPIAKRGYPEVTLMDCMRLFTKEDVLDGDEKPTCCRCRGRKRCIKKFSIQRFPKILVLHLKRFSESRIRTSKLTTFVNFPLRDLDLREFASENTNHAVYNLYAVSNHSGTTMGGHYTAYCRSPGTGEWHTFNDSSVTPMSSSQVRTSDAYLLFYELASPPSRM
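USP2 core (10nM final) preincubated 30min RT with compound in 20mM Tris-HCl pH 8.0, 2mM CaCl2, 2mM beta-mercaptoethanol, 0.05% CHAPS; 25nM Ub-CHOP2 plus 25nM reporter substrate added, fluorescence (Ex485/Em531) read after 60min.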
Giardia killer: kills Giardia lamblia; 0.15% of 340,000 active; Giardia lamblia trophozoite viability; activity change, % at 7.66 µM, hits read low; AID 540267; in the data active = activity change below about -80%; inconclusive = between about -30% and that limit;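 note: parasites exposed to compound for two days anaerobically before the ATP read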
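Compounds were tested on trophozoites seeded at 100 cells/well and held 48 hrs at 37 deg C anaerobically. An ATP-based luminescent kit measured the remaining live cells.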
Eya2 phos inh: inhibitors of human Eya2 phosphatase activity. O00167. recombinant Eya2, OMFP fluorescence dephosphorylation (OMFP is methylfluorescein phosphate). Potency, µM (highest dose often 76.9 µM), for inactives: at the highest dose activity, negative = inhibition, actives largely listed as inhibitors. 0.006% of 330,000 active; note: potency is the fitted concentration of half-maximal effect
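Eya2 (0.2 uM) preincubated 10 min at ambient with compound, then OMFP substrate added at 50 uM; 10 min reaction in 50 mM HEPES pH 7.5, 50 mM NaCl, 5 uM MgCl2, 0.05% BSA, 1 mM DTT. Fluorescence read at Ex 485/Em 525 nm.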
Starred values were filed as active, the others as inactive; ? = inconclusive; . = no result given; [ ] = remark or other dose. Unless noted, calls come from the whole dose curve; as a rule, active = well fitted curve in the direction sought with a large enough effect; inconclusive = small, poorly fitted or top-dose-only effect, or another doubt; inactive = no such curve, though single readings can be large; an effect the other way counts as inactive or inconclusive. Unless noted, % is set by controls: 0 for no effect and ±100 for the full control effect.

Compound | BCR signal inh | KCNH2 WT inh | GALK inhibitor | B2AR arrestin | KCNH2 3.1 inh | uPA generation | Coupling enz | USP2a block | Giardia killer | Eya2 phos inh
COc1cccc(CC(=O)N2CCCC(CO)(Cc3ccc(F)cc3F)C2)c1 (stereo not given) | 7% | -6 | 5% | -0.1% | -15 | 0% | 2 | 0% | -15 | 7%
O=C(NCCc1ccccc1)c1ccc(-c2ccc(F)cc2)o1 | 7% | 7 | 0% | 0.5% | 8 | 1% | 0 | 0% | -1 | -7%
COC(=O)c1cc(OC)c(OC)cc1NC(=O)Nc1ccc(OC)cc1 | 2% | 3 | -3% | 3.9% | -6 | -2% | 1 | 2% | 14 | 15%
O=C(C1=C[C@H](c2coc3ccccc3c2=O)C[C@H](OCc2ccc(CO)cc2)O1)N1CCN(Cc2ccc3c(c2)OCO3)CC1 | -2% | -14 | 0% | 0.0% | -5 | 10% | 2 | -6% | 6 | -3%
COC(=O)C1=C(NC(=O)c2ccccc2[N+](=O)[O-])CCS1 | -2% | -4 | 0% | -0.1% | 25 | -4% | -2 | 2% | 7 | -28%
CCOC(=O)CC1=CC(=O)Nc2ccccc2N1 | ? | -6 | 2% | -0.2% | 6 | 2% | 0 | 3% | 3 | 4%
Cc1ccc(NC(=S)NCCCN2CCOCC2)cc1C | -1% | 9 | -1% | -0.5% | 30 | 20% | 22 | 0% | 17 | 6%
O=C1CC2CS(=O)(=O)CC2N1c1ccc(Oc2ccccc2)cc1 (stereo not given) | -6% | -9 | -2% | 0.0% | 13 | -2% | 2 | 1% | -15 | 23%
COC(=O)c1cc(S(=O)(=O)Nc2ccc(C)cn2)c[nH]1 | 1% | 7 | 0% | 0.1% | 0 | -12% | -1 | 2% | ? | -3%
COc1ccc(C(=O)CNc2ccccc2CO)cc1 | ? | -21 | 1% | 0.4% | -9 | -4% | -1 | -4% | -16 | 4%
O=C(O)c1cccnc1SC1CC(=O)N(c2ccccc2)C1=O (stereo not given) | -1% | 8 | -4% | -0.4% | 1 | -1% | 1 | 15% | 14 | 4%
CC(OC(=O)C1=COCCO1)C(=O)Nc1cc(S(=O)(=O)N2CCCCC2)ccc1Cl (stereo not given) | 5% | -7 | 0% | -0.1% | -9 | 9% | -2 | 2% | -2 | 0%
O=C(N/N=C/c1c[nH]c2ccc(Br)cc12)C1CC1 | -21% | -27 | -2% | ? | -48 | 0% | 0 | -2% | 25 | 3%
Cc1ccc(C(=O)Nc2cc(C)nn2CCC#N)cc1 | -20% | -5 | -1% | 0.0% | 6 | -1% | 1 | 0% | 3 | -3%
Cn1c(=O)[nH]c(=O)c2c1nc(N1CCCCCC1)n2CC(=O)c1ccccc1 | -1% | . | 4% | 0.5% | . | . | 3 | 0% | . | 3%
COc1ccc(C2c3ccc(O)cc3Oc3ncn4nc(-c5ccncc5)nc4c32)cc1OC (stereo not given) | -25% | -2 | 1% | -0.3% | 5 | -2% | 0 | 0% | -11 | -9%
Cc1noc(C)c1C(=O)OCC(=O)Nc1cc(S(=O)(=O)N2CCOCC2)ccc1Cl | ? | . | 8% | 0.0% | . | . | 0 | -1% | . | -2%
CCC(C(=O)OCC(=O)Nc1ccccc1-c1ccccc1)c1ccccc1 (stereo not given) | 2% | -1 | 1% | 0.5% | 1 | 5% | 3 | 3% | 21 | -3%
Cn1c(=O)c2c(nc(N3CCC(C(N)=O)CC3)n2CCSc2nc3ccccc3s2)n(C)c1=O | 1% | -8 | 0% | -0.4% | 10 | -7% | -7 | -3% | -20 | 0%
O=C(NCCN1CCCC1)c1ccc(Cn2c(=S)[nH]c3cc4c(cc3c2=O)OCO4)cc1 | ? | -4 | 0% | 0.3% | -5 | 1% | 0 | 2% | 5 | -18%
COc1ccc(NC(=O)c2cccc(NC(=O)c3ccccc3)c2)cc1 | ? | -1 | -2% | -1.0% | 10 | -11% | 1 | 2% | 2 | -22%
O=C1C2C3C=CC(CC3)C2C(=O)N1c1ccccc1[N+](=O)[O-] (stereo not given) | ? | 1 | 0% | 0.0% | 4 | 0% | 3 | -7% | -19 | 0%
COc1cccc(/C=N/NC(=O)C(=O)NCc2cccnc2)c1O | -14% | -1 | -1% | -1.0% | 0 | -6% | 1 | 1% | -10 | 12%
Cc1cccc(NC(=O)NCC(F)(F)F)n1 | ? | 4 | 1% | -0.7% | -2 | -9% | 1 | 4% | -5 | -7%
CC1(C)NC(=O)N(CC(O)Cn2c3ccccc3c3ccccc32)C1=O (stereo not given) | ? | -2 | 11% | 0.0% | -1 | 4% | 4 | 2% | 9 | -9%
CN(C(=O)c1ccc(S(=O)(=O)N(C)C)cc1)c1ccc2ccccc2c1 | 1% | -1 | 1% | 0.3% | -10 | -1% | -5 | 0% | -13 | 1%
Cc1ccc(NC(=O)COc2ccccc2C(=O)NCCc2ccccc2)cc1 | -1% | 1 | -3% | -0.6% | -3 | 21% | 0 | -3% | 51[activator] | 3%
CSc1nc(N)c(C(=O)NC2CCCCC2)s1 | ? | -6 | -2% | 0.2% | 5 | 8% | 2 | 4% | -22 | -9%
O=C(c1cnn2c(C(F)(F)F)cc(-c3ccc(Br)cc3)nc12)N1CCOCC1 | -2% | -17 | 2% | 0.3% | 0 | 7% | 2 | 3% | -9 | 7%[15.4 µM]
CCOC(=O)CN1C(=O)CSc2ccccc21 | -2% | -28 | -2% | 0.2% | 7 | . | -1 | -1% | -3 | -17%

The list goes on; the last 7 above are carried over.
Compound | BCR signal inh | KCNH2 WT inh | GALK inhibitor | B2AR arrestin | KCNH2 3.1 inh | uPA generation | Coupling enz | USP2a block | Giardia killer | Eya2 phos inh
Cc1cccc(NC(=O)NCC(F)(F)F)n1 | ? | 4 | 1% | -0.7% | -2 | -9% | 1 | 4% | -5 | -7%
CC1(C)NC(=O)N(CC(O)Cn2c3ccccc3c3ccccc32)C1=O (stereo not given) | ? | -2 | 11% | 0.0% | -1 | 4% | 4 | 2% | 9 | -9%
CN(C(=O)c1ccc(S(=O)(=O)N(C)C)cc1)c1ccc2ccccc2c1 | 1% | -1 | 1% | 0.3% | -10 | -1% | -5 | 0% | -13 | 1%
Cc1ccc(NC(=O)COc2ccccc2C(=O)NCCc2ccccc2)cc1 | -1% | 1 | -3% | -0.6% | -3 | 21% | 0 | -3% | 51[activator] | 3%
CSc1nc(N)c(C(=O)NC2CCCCC2)s1 | ? | -6 | -2% | 0.2% | 5 | 8% | 2 | 4% | -22 | -9%
O=C(c1cnn2c(C(F)(F)F)cc(-c3ccc(Br)cc3)nc12)N1CCOCC1 | -2% | -17 | 2% | 0.3% | 0 | 7% | 2 | 3% | -9 | 7%[15.4 µM]
CCOC(=O)CN1C(=O)CSc2ccccc21 | -2% | -28 | -2% | 0.2% | 7 | . | -1 | -1% | -3 | -17%
COc1ccc(-n2c(Cc3cc(=O)[nH]c(=O)[nH]3)nnc2SCC(=O)NC2CCCC2)cc1 | 7% | -1 | 1% | -0.2% | -2 | -28% | 4 | 6% | -5 | 10%
O=C1c2c(O)cc(O)cc2O[C@H](c2ccc(O)c(O)c2)[C@@H]1O | ? | . | 3% | -0.6% | . | . | -3 | 1% | . | 4%
N#Cc1c(-c2ccco2)cc(-c2ccc(F)cc2)nc1N | ? | -3 | -2% | -0.2% | -9 | -7% | -6 | 1% | -9 | 9%
O=C(O)/C=C/C(=O)Nc1ccc2nccnc2c1 | -3% | -5 | 2% | 0.1% | 2 | -1% | -1 | 1% | -2 | ?
CCOC(=O)c1c(C)oc2ccc(OC(=O)N3CCOCC3)cc12 | 3% | 8 | 0% | -0.1% | -16 | 8% | 3 | 2% | -17 | -5%
COc1cccc(CN2CCNC(=O)C2CC(=O)NCc2cn3ccc(C)cc3n2)c1OC (stereo not given) | 10% | -1 | -1% | 0.3% | 23 | -1% | -3 | -1% | 6 | -19%
O=C(NC(=S)N1CCc2ccccc21)c1ccccc1Br | ? | 1 | 0% | 0.5% | 4 | -4% | -2 | -7% | 9 | 1%
COc1ccc(-c2nc(C(N)=O)c3[nH]c(=O)n(-c4cccc(C)c4)c3n2)c(OC)c1 | ? | 41 | 3% | -0.3% | -4 | -8% | -2 | -1% | -6 | -21%
Cc1ccccc1NC(=O)C1Cc2ccccc2CN1C(=O)OCc1ccccc1 (stereo not given) | -1% | -5 | 1% | -0.1% | 2 | -3% | -1 | 0% | 5 | -4%
CC(NC(=O)c1cccnc1)C(c1ccccc1)N1CCN(C)CC1 (stereo not given) | -8% | -1 | -2% | 0.5% | -77* | . | 6 | 6% | 3 | 4%
O=C(Cn1nc(Cc2cccnc2)c2ccccc2c1=O)NCCCN1CCCC1=O | 1% | -3 | 2% | -0.3% | -5 | 8% | 0 | 3% | -21 | 6%
CCOC(=O)c1c(C)[nH]c(C)c1C(=O)CSc1nnc(-c2ccncc2)n1Cc1ccccc1 | 8% | -16 | 1% | 0.0% | 4 | -5% | 2 | -7% | -1 | 4%
COc1cc(C2C(C#N)=C(N)Oc3cc(C)oc(=O)c32)ccc1OC(=O)N1CCOCC1 (stereo not given) | 2% | -1 | 1% | 0.3% | 4 | 5% | 4 | -1% | 12 | -8%
Cn1cnnc1SCCOc1ccc(Cl)cc1 | -2% | 5 | 0% | 0.2% | 5 | -10% | -1 | 2% | -2 | -4%
CC(/C=N/n1c(-c2ccccc2)n[nH]c1=S)=C\c1ccco1 | -6% | -14 | 0% | 0.4% | -9 | 7% | 2 | 4% | 19 | -15%
COc1ccc(-c2cc3nc(C)cc(NCCO)n3n2)cc1 | ? | -13 | 6% | 0.1% | 6 | -8% | -29 | 0% | -15 | 17%

A portion of the library; count on the stated rates, not on these rows.
